miR-21 FLuc – raises the signal of a miR-21 reporter; HeLa miR-21 FLuc reporter, luciferase, 48 h; Potency, µM (doses to about 38.3 µM), inactives show at the top dose reporter change, positive = more light; 340,000 tested, under 10 active; active = well fitted rising curve with a large enough effect; inconclusive = small, poorly fitted or top-dose-only effect; inactive = no such curve, though single readings can be large or run the other way;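 note: % of control where 0% means no effect; miR-21 action dims this reporter so a rising signal means less miR-21 action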
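Luminescence from a firefly luciferase reporter carrying a miR-21 binding site downstream, stably expressed under a CMV promoter in HeLa cells that make miR-21 endogenously, reports miRNA modulation after 48 h compound exposure up to approximately 40uM final.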
GLA inh pH 4.5 – alpha-galactosidase A (human) inhibition, pH 4.5 | purified enzyme, 4-MU-alpha-Gal fluorescence, pH 4.5 | 230,000 tested, under 10 active | P06280 | AID 1467 | activity change, negative = inhibition, % at 105 µM; inconclusive = small, poorly fitted or top-dose-only inhibition, or a rising curve; inactive = flat fitted curve, though single readings scatter; no compound was filed as active;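 note: 0% = full activity with enzyme and -100% = basal without enzyme; dose as in the result columns while the protocol names 77 µM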
Target sequence (P06280 whole entry, looked up): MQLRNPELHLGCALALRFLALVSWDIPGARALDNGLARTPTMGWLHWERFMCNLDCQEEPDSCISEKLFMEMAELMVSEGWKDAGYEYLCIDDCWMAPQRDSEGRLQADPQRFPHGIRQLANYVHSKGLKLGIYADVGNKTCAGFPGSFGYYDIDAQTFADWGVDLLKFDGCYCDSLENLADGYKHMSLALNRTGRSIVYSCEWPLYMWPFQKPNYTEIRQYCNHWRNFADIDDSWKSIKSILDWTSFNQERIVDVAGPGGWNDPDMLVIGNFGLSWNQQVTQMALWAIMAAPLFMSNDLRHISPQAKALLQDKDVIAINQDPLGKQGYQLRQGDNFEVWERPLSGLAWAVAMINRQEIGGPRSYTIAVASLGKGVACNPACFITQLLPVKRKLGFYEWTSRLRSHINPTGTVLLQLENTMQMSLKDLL
Rango complex inh – Rango-importin beta binding inhibition. Q14974. Rango CFP/YFP FRET sensor + importin beta, 45 min. Potency, µM (highest dose often 92.2 µM), inactives show at the top dose inhibition of complex formation. 0.031% of 340,000 active. AID 540263; active = rising FRET ratio curve, often small or poorly fitted; inconclusive = mostly compound fluorescence or quenching in the first reads; inactive = flat curves in all reads;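 note: potency is the fitted concentration of half-maximal effect; 0% = DMSO wells and 100% = buffer wells lacking importin beta; nearly all actives have a fitted effect of over 15% in size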
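Inhibition scored from the CFP 486 nm/YFP 530 nm FRET ratio 45 min after adding 0.125 microM importin beta to 50 nM Rango biosensor preincubated 5 min with compound (room temperature, PBS with DTT, Tween-20, BSA). No-importin wells as positive control.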
Rango release inh – inhibitors of RanGTP-induced Rango-importin beta complex dissociation; O95149+P62826; Biochemical FRET Rango-importin beta, RanGTP-induced dissociation; Potency, µM (top dose mostly 46.1 µM), for the others: at the highest dose activity change, negative = inhibition; 0.071% of 340,000 active; AID 540253; active means falling FRET ratio curve, often poorly fitted, with flat reads before Ran was added; inconclusive means other falling curves, or compound fluorescence or quenching; inactive means flat or rising ratio curve;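 note: potency is the fitted concentration of half-maximal effect; % of control where 0% means no effect; nearly all actives have a fitted effect of over 45% in size; -100% = wells without RanGTP and RCC1; the record marks most hits as doubtful in a second field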
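Recombinant Rango FRET biosensor (EYFP–snurportin 1 IBB–cerulean CFP10) at 0.1 uM premixed with 0.25 uM importin beta in PBS, 1 mM DTT, 0.02% Tween-20, 0.1% BSA. Compound added 5 min; RanGTP-RCC1 (0.6 uM Ran, 2 mM GTP, 0.2 uM RCC1) then triggers release, read at 45 min.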
Active calls of the source: *; ? = inconclusive; . = no result given. An excerpt; rates above refer to the full screens.

Sample of the layout:
miR-21 FLuc,GLA inh pH 4.5,Rango complex inh,Rango release inh,smiles
23%,-12,-0.1%,11%,N#C/C(=N\Nc1ccc(Cl)cc1)C(=O)c1ccccc1
9%,-6,5.1%,-6%,Cc1ccc(NC(=S)NNc2ncc(C(F)(F)F)cc2Cl)c(C)c1

Results (from the top)
miR-21 FLuc,GLA inh pH 4.5,Rango complex inh,Rango release inh,smiles
23%,-12,-0.1%,11%,N#C/C(=N\Nc1ccc(Cl)cc1)C(=O)c1ccccc1
9%,-6,5.1%,-6%,Cc1ccc(NC(=S)NNc2ncc(C(F)(F)F)cc2Cl)c(C)c1
-7%,-1,?,?,CCC(=O)Nc1cc(C)c(NC(=O)CCc2ccccc2)cn1
-21%,-16,2.9%,-15%,FC(F)(F)c1cccc(NC(=S)Nc2cccc(NC(=S)Nc3cccc(C(F)(F)F)c3)n2)c1
-7%,-19,?,-17%,Oc1ccccc1CNc1nc2ccccc2n1CCN1CCCCC1
.,.,2.4%,-10%,COc1ccc(C)cc1S(=O)(=O)NCC(c1ccco1)N1CCc2ccccc2C1 (stereo not given)
-1%,.,5.9%,0%,O=C(NCCNC(=O)c1ccco1)c1ccco1
-25%,.,-3.0%,1%,Cn1ccsc1=NC(=O)c1ccc(CS(C)(=O)=O)cc1
.,.,?,?,Cc1cc(N2CCCCCC2)nc2ccc(F)cc12
0%,-1,-0.7%,-10%,COc1ccc(C)cc1-n1[nH]nnc1=S
-4%,.,-0.3%,-7%,CC(=O)c1ccc(S(=O)(=O)N2CCCC(N(C)CCc3ccccn3)C2)cc1 (stereo not given)
-4%,-5,-1.8%,0%,CCC1(C)Cc2c(sc3nnn(CC(=O)Nc4ccccc4C)c(=O)c23)CO1 (stereo not given)
0%,.,2.7%,-8%,COc1ccc(Cl)cc1N1C(=NC(=O)C2CCCCC2)SC2CS(=O)(=O)CC21 (stereo not given)
-3%,-2,-0.5%,-10%,CC(C)Oc1ccc(N2CC(C(=O)Nc3ccc4c(c3)OCO4)CC2=O)cc1 (stereo not given)
.,.,-1.7%,-15%,CCCN(CC(=O)Nc1ccccc1OC)C(=O)CN1C(=O)NC2(CCCCC2)C1=O
0%,.,7.7%,7%,Cc1c(OCC(=O)NC(Cc2ccc(Cl)cc2)C(=O)O)ccc2c(-c3ccccc3)cc(=O)oc12 (stereo not given)
.,.,0.8%,8%,O=C(N/N=C/c1ccncc1)c1ccncc1
-1%,.,6.8%,0%,O=C(Nc1ccc(Cl)cc1)C1C2C=CC3(O2)C1C(=O)N(CCCN1CCCCC1)C3C(=O)NC1CCCCC1 (stereo not given)
.,.,-2.9%,-2%,Cc1nn(-c2ccccc2)c(C)c1/C=N/NC(=O)c1ccc(F)cc1
15%,-3,-0.1%,-19%,O=C(CSCc1nc2ccccc2[nH]1)N1CCN(c2cccc(Cl)c2)CC1
-11%,.,-2.4%,-1%,Cc1cc2oc(=O)cc(CN3CCCCC3C)c2cc1C (stereo not given)
0%,.,5.7%,8%,Cn1nnnc1SCC(=O)Nc1ccc(Cl)cn1
22%,-10,0.8%,-12%,Cc1noc(C)c1C(=O)Nc1nc(C23CC4CC(CC(C4)C2)C3)cs1
-1%,.,0.3%,-1%,O=C(CCC1N=C2c3ccccc3N=C(SCC(=O)NCC3CCCO3)N2C1=O)NCc1ccc(F)cc1 (stereo not given)
-4%,-9,-0.1%,2%,CC[n+]1c(C)sc2c(C)cc(C)cc21
-3%,.,1.4%,17%,NC(=O)CC(NC(=O)c1cccc(Br)c1)c1ccc(NC2CCC2)c([N+](=O)[O-])c1 (stereo not given)
11%,.,0.9%,-13%,O=C(Nc1ccc([N+](=O)[O-])cc1)c1cccc(S(=O)(=O)Nc2ccccn2)c1
.,.,-2.4%,15%,COc1ccc(S(=O)(=O)N2CCCCCC2)cc1NC(=O)CCCOc1ccccc1
-72%,8,-3.7%,-8%,S=C1c2ccccc2CN1c1ccccc1
-6%,.,?,9%,COCC(C)N1CCC(n2nccc2NC(=O)CCCc2ccccc2)CC1 (stereo not given)
-58%,.,-1.0%,10%,COc1ccc(CCc2nc(-c3cccs3)no2)cc1
-14%,-6,-2.7%,35%,C/C(=N\NC(=O)C1CC1)c1cccnc1
-5%,.,-3.4%,-15%,CSc1nc2c(c(=O)[nH]c(=O)n2C)n1Cc1ccccc1
.,.,0.5%,2%,C=CCc1ccc(OCCOc2cccc(/C=N/n3cnnc3)c2)c(OC)c1
0%,.,3.6%,-17%,CC(C(=O)c1ccc(-c2ccccc2)cc1)[n+]1cccc(Br)c1 (stereo not given)
-1%,0,-3.3%,9%,Cc1ccc(-n2nnnc2SCC(=O)c2c(N)n(CC(C)C)c(=O)n(C)c2=O)cc1
0%,-8,0.5%,-15%,CC(=O)Nc1cccc2c1C(=O)N(c1ccccc1C)C2=O
-1%,13,-1.5%,-7%,O=C1C(=O)N(CNc2ccccn2)c2ccccc21
1%,-5,5.2%,11%,O=C(COc1cccc2ccccc12)NNC(=O)c1cnccn1
25%,.,-3.0%,20%,COC(=O)C1=C(C)N(Cc2ccccc2)C(=NCCc2c[nH]c3ccccc23)N[C@H]1c1ccccc1
-3%,-1,-1.0%,-8%,Cc1cccc(N2C(=O)CN=C2Nc2nc(C)cc(C)n2)c1
-9%,-5,1.0%,5%,NS(=O)(=O)c1ccc(CNC(=O)/C=C/c2ccccc2[N+](=O)[O-])cc1
-9%,.,1.2%,3%,Cc1c(C)c2c(OCC(=O)N3CCC(C(=O)O)CC3)cc3c(c2oc1=O)CCC(C)(C)O3
.,.,1.7%,-3%,O=C(NCc1ccncc1)c1ccc(S(=O)(=O)Nc2ccccc2)cc1
-11%,-3,0.6%,-2%,CCn1c(SCC(=O)NCC2CCCO2)nc2c(c1=O)SC(C)C2 (stereo not given)
-2%,-2,2.3%,-7%,CC1(C(=O)NC2CCCCCC2)CCC(=O)N1Cc1ccc2c(c1)OCO2 (stereo not given)
-1%,4,-0.9%,-7%,Cc1ccc2[nH]cc(CCNC(=O)c3cccnc3)c2c1
-7%,-3,4.6%,-13%,CCOC(=O)c1c(C)n(CCO)c2ccc(O)cc12
-75%,4,?,-23%,Cc1ccc(NC(=O)c2sc3nc(N)c(C#N)cc3c2N)cc1
1%,4,0.7%,1%,C=CCNS(=O)(=O)c1ccc(OCC(=O)OCC)cc1
.,.,1.2%,3%,CSCCC(NC(=O)c1ccccc1)C(=O)N1CCN(C(C)=O)CC1 (stereo not given)
-61%,-5,-2.1%,-17%,CCn1c(SCc2ccccc2Cl)nc2ccccc21
-20%,.,?,-9%,COc1cc2c(cc1OC)/C(=C/C(=O)c1ccc(F)cc1)NCC2
?,-7,2.6%,3%,CC(C)Cn1cnc2c(c(-c3ccccc3)c(-c3ccccc3)n2Cc2ccco2)c1=N
-3%,-20,-3.5%,5%,Cc1ccccc1OCc1n[nH]c(=S)n1Cc1ccccc1
13%,-2,-0.6%,1%,CN1CC(c2ccc(C#N)cc2)C2(COc3ccccc3C2=O)C12C(=O)Nc1ccccc12 (stereo not given)
-2%,1,-4.0%,-1%,Cc1nnsc1Sc1cccc(C(F)(F)F)c1
-2%,-7,-3.8%,1%,CCCc1cc(=O)[nH]c(SCC(=O)N2CCN(S(=O)(=O)c3ccc(Cl)cc3)CC2)n1
0%,.,6.6%,-4%,Cc1ccc(C(=O)NC(C)c2ccc(S(N)(=O)=O)cc2)s1 (stereo not given)
1%,3,-1.1%,4%,COc1ccccc1N(C(C)=O)c1nc(C)cc(C)c1C#N

An excerpt of these results, with bars between the fields.
compound | miR-21 FLuc | GLA inh pH 4.5 | Rango complex inh | Rango release inh
CSc1nc2c(c(=O)[nH]c(=O)n2C)n1Cc1ccccc1 | -5% | . | -3.4% | -15%
C=CCc1ccc(OCCOc2cccc(/C=N/n3cnnc3)c2)c(OC)c1 | . | . | 0.5% | 2%
CC(C(=O)c1ccc(-c2ccccc2)cc1)[n+]1cccc(Br)c1 (stereo not given) | 0% | . | 3.6% | -17%
Cc1ccc(-n2nnnc2SCC(=O)c2c(N)n(CC(C)C)c(=O)n(C)c2=O)cc1 | -1% | 0 | -3.3% | 9%
CC(=O)Nc1cccc2c1C(=O)N(c1ccccc1C)C2=O | 0% | -8 | 0.5% | -15%

Carrying on:
miR-21 FLuc,GLA inh pH 4.5,Rango complex inh,Rango release inh,smiles
-29%,-2,-2.7%,1%,N#Cc1c(/N=C/c2cccs2)sc2c1CCC2
2%,-13,-0.4%,-9%,C#CCNc1ccc([N+](=O)[O-])cc1
-1%,3,-1.7%,11%,CCOC(=O)C(=O)Nc1sc(C(=O)N(CC)CC)c(C)c1C#N
.,.,-1.7%,11%,N#Cc1c(-c2ccc(Cl)cc2)c(-c2ccc(Cl)cc2)nn(CCOC(=O)CCC(=O)O)c1=O
-25%,4,3.1%,-21%,O=C(CN1CCN(c2ncccn2)CC1)N1CCc2ccccc21
5%,9,0.2%,11%,O=C1NC(c2ccc3c(c2)OCO3)Nc2ccccc21 (stereo not given)
-4%,.,-1.2%,-2%,O=C(NCCCNC(=O)c1cnccn1)c1ccc(Cl)c(Cl)c1
-6%,0,-0.1%,6%,Cn1c(-c2ccc[nH]c2=O)nc2cc(Cl)ccc21
3%,6,-0.2%,-16%,COc1cc(NC(=O)COC(=O)CNS(=O)(=O)c2ccc(F)c(F)c2F)cc(OC)c1
-5%,4,3.5%,-11%,CCN(Cc1cc2cc(C)ccc2[nH]c1=O)S(=O)(=O)c1ccccc1
-1%,2,1.0%,23%,COc1ccc(/C=N/NC(=O)CCn2nc(C)cc2C)cc1O
3%,.,1.4%,9%,CCOC(=O)C1CCN(C(=O)CCNS(=O)(=O)c2cc(Br)cnc2N)CC1
-27%,1,1.5%,0%,CC(C)C(=O)Nc1ccc2oc(-c3cc(F)c(F)cc3Cl)nc2c1
-3%,.,-2.9%,-8%,CCC1(c2ccccc2)NC(=O)N(CC(=O)Nc2ccc(S(N)(=O)=O)cc2)C1=O (stereo not given)
.,.,-2.1%,5%,COC(=O)[C@@]1(Cc2ccccc2)[C@H]2C(=O)N(C)C(=O)[C@H]2[C@H]2CN=C(SCc3ccc(C#N)cc3)N21
13%,5,11%,4%,COC(=O)CSC1=C(C#N)C(c2ccccc2)CC(=O)N1 (stereo not given)
.,.,2.4%,32%,Cc1nc(SCC(=O)NCC2COc3ccccc3O2)c2c(C)c(C)sc2n1 (stereo not given)
-1%,.,-1.9%,-13%,O=C(O)c1cc(NC(=O)c2ccc([N+](=O)[O-])cc2)cc(NC(=O)c2ccc([N+](=O)[O-])cc2)c1
-31%,4,-0.3%,0%,CCCCC(=O)Nc1cccc(-c2cn3ccccc3n2)c1
-7%,-24,-2.2%,1%,O=C(CSCCc1ccccn1)Nc1cccnc1Cl
.,.,2.0%,-6%,CCC(=O)c1cccc(-c2ccccc2)c1CC
0%,-5,3.6%,0%,CC(C)CC(=O)NC(=S)Nc1nc(-c2ccc(Cl)cc2)cs1
.,.,1.9%,-6%,Oc1cc(NCc2ccc(Cl)cc2)cc2cccnc12
12%,-11,2.8%,2%,Cc1cc(NC(=O)c2cc(-c3ccco3)on2)nn1Cc1ccc(Cl)cc1
-4%,.,?,9%,CCN(CC)CCN(C(=O)/C=C/c1cccs1)c1nc2ccc(Cl)cc2s1
-13%,3,-1.7%,-2%,COC(CNC(=O)c1ccc(N2CCC3(CC2)OCCO3)c([N+](=O)[O-])c1)OC
-21%,-5,?,0%,COc1ccccc1-n1cnnc1SCC(=O)c1cc(C)n(Cc2cccs2)c1C
-21%,-10,0.6%,2%,O=C(NCc1cccnc1)c1nc(-c2cccs2)no1
?,5,-1.6%,-2%,CC(C)NCC(O)Cn1c2c(c3ccccc31)CCc1c-2cnn1-c1ccccc1 (stereo not given)
-7%,-3,-2.3%,6%,COc1ccc(C(=O)NCc2ccccc2OC)c(OC)c1
-4%,-2,-2.0%,11%,Cc1ccc(NC(=O)CCn2c(=S)oc3ccccc32)cc1
11%,.,-3.4%,16%,COc1ccc(N(CC(=O)NCc2ccccc2OC)S(=O)(=O)c2ccc(C)cc2)cc1Cl
0%,1,-0.9%,2%,CC(=O)Nc1ccc(NC(=O)CC2Nc3cccc4cccc(c34)NC2=O)cc1 (stereo not given)
